Mtb bLac sens – beta-lactam sensitization of Mtb H37Rv. M. tuberculosis H37Rv growth with meropenem, percent inhibition; hits of this screen are not shown here. inhibition, % at 25 µM. hit rate 0.27% among 330,000. AID 434955;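 active = about 74% or more and at least 40 points above the plate without the antibiotic, then above 30% in a dose series; inconclusive = first-round hits that could not be retested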;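 note: growth measured after seven days incubation then overnight dye step; 0% = bacteria only wells and 100% = bacteria with antibiotic; twin plates without the antibiotic show which effects depend on it; some results filed as inactive read as strong as hits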
RecA splice inh – inhibitors of M. tuberculosis RecA intein splicing; cell-free RecA intein splicing, fluorescence; AID 2221; P9WHJ3; hit rate 0.75% among 290,000; inhibition, %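 (about 9 µM by stock and volumes)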; in the data active = inhibition above about 30%; inconclusive = no clear call, values can overlap the other calls;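 note: 0% = vehicle wells and 100% = reference inhibitor control wells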
Target sequence (P9WHJ3 whole entry, looked up, canonical isoform): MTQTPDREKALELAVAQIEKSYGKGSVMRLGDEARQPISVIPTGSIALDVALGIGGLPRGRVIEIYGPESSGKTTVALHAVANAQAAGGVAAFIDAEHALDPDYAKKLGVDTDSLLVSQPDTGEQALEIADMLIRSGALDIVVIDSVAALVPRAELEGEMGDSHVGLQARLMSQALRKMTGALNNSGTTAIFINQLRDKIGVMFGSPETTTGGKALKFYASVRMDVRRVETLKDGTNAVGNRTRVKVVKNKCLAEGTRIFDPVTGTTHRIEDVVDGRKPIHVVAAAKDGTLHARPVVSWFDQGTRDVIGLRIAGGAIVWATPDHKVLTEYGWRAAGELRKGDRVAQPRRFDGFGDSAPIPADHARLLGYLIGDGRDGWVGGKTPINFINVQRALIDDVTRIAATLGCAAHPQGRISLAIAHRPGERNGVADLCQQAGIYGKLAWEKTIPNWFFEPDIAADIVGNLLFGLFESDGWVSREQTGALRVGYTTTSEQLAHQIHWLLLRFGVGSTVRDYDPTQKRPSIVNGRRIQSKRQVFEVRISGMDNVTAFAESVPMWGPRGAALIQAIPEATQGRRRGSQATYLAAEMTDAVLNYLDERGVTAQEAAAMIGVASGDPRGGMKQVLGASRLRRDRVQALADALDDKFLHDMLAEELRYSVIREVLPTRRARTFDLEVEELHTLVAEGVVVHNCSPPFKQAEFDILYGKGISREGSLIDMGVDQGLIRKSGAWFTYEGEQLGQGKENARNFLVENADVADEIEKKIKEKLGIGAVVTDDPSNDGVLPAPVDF
Arbovirus anti – blocks arbovirus infection; arbovirus infection cell-based antiviral screen; inhibition, % at 10 µM; hit rate 0.37% among 200,000; AID 1251;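 active = inhibition from about 30%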;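 note: bluetongue infection of BSR cells; cell survival read as ATP light after 72 h; 0% = infected wells without compound and 100% = uninfected wells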
Mtb H37Rv – M. tuberculosis H37Rv growth inhibitors, H37Rv strain (AID 1626) | inhibition, % at 10 µM, or IC50 in µM where a hit was titrated | M. tuberculosis H37Rv growth inhibition; higher % means a stronger effect | hit rate 0.95% among 220,000;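 active = confirmed in a dose series; inconclusive = inhibition above 80% but not taken into the dose series; inactive = below 80% or under 30% at every dose of the series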;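 note: bacteria incubated seven days before Alamar blue readout; 0% = bacteria only wells and 100% = bacteria with antibiotic wells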
YopH PTP inh – inhibitors of Yersinia enterocolitica YopH tyrosine phosphatase; fluorescence Ex485/Em525; AID 898; hit rate 0.16% among 140,000; inhibition, %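 (about 10 µM by stock and volumes)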;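 active = inhibition of 50% or more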;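 note: controls were vehicle for no effect and minimum signal wells for full effect; inactives centre near -20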
Arbovirus anti repeat – recorded beside Arbovirus anti, whose call it bears; inhibition, %; measured here: 10K subset replicate screen; many hits read low in the repeat;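 first of two repeat runs on a subset; 0% = infected and 100% = uninfected wells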
An asterisk follows results filed as active; ? = inconclusive; . = no result given.

SMILES	Mtb bLac sens	RecA splice inh	Arbovirus anti	Mtb H37Rv	YopH PTP inh	others
CS(=O)(=O)N(CC(=O)NCc1ccccc1)c1ccc(Cl)cc1	-5	-0.1	.	.	.
COC(=O)c1ccc(NC(=O)c2ccccc2NS(=O)(=O)c2ccccc2)cc1	-8	0.7	-4	-2%	-23
O=C1CN(C(=O)COC(=O)CCCOc2ccccc2)c2ccccc2N1	2	-1.8	12	5%	.
COc1ccc(N2C(=O)C3C(C2=O)C3(c2ccccc2)c2ccccc2)cc1 (stereo not drawn)	11	-2.0	.	-5%	.
CCN(CC(=O)NC1CCS(=O)(=O)C1)C(=O)C(c1ccccc1)c1ccccc1 (stereo not drawn)	3	1.9	11	-5%	-27
N#CC1=C(N)N2C(=C(C#N)C13CCN(Cc1ccccc1)CC3)Nc1ccccc12	-7	-15	3	-9%	13
Cc1ccc(-c2cc(-c3ccc(C)o3)nc(N)c2C#N)cc1	36	-4.5	-3	5%	-40
Cc1ncc(CN2CCC(C(=O)Nc3cccc(-c4cscn4)c3)CC2)cn1	-5	0.9	.	.	.
CCOC(=O)C1=C(N)Oc2cc(O)ccc2C1c1ccc(F)cc1F (stereo not drawn)	9	-2.7	.	.	.
CCOc1ccccc1NC(=O)Nc1ccsc1C(=O)OC	1	4.2	.	.	.
O=C(Nc1nncs1)c1cc(-c2ccncc2)nc2ccc(Cl)cc12	-10	3.2	.	.	.
CN(CC(=O)NCc1ccc(F)cc1)S(=O)(=O)c1ccc2c(c1)c(=O)n(C)c(=O)n2C	2	0.9	.	.	.
CN(CCC1CCOCC1)C(=O)CC1C(=O)NCCN1Cc1c(F)cccc1Cl (stereo not drawn)	?	0.8	.	.	.
CC(C)Nc1nc(NC(C)C)nc(Oc2ccc(=O)n(C)n2)n1	-6	-0.6	-4	6%	.
Cc1cccc(C)c1NC(=O)CNC(=O)C1CC(=O)N(Cc2ccccc2)C1 (stereo not drawn)	-14	-1.1	.	.	.
CCOC(=O)c1nnc(-c2ccccc2)nc1Oc1ccccc1Cl	27	45*	19	0%	-19
CCn1c(SCCC#N)nnc1-c1ccncc1	4	-1.1	2	-2%	-16
CCOC(=O)N1CCN(Cc2nc3cc(NC(C)=O)ccc3n2C)CC1	1	1.5	.	.	.
Cc1ccc2sc(NNC(=O)C3=COCCO3)nc2c1C	-4	.	15	-2%	.
COc1cccc(OCCCCN2CCCCC2)c1	-4	1.1	3	0%	10
CCOC(=O)CSc1nnc(NC(=O)CN2CCN(C=O)CC2)s1	-3	0.4	.	.	.
CCOC(=O)c1cnc(Nc2nc3ccccc3o2)nc1C	94	-3.2	-24	20µM*	-5
Cc1ccc(OCCCCn2c(CO)nc3ccccc32)cc1	31	3.3	15	.	.
CCOC(=O)C(=O)Nc1nc(-c2ccccc2)c(CC)s1	4	0.5	10	.	-6
O=C(Nc1cccc(Cl)c1)Nc1nc(-c2ccccc2)cs1	-2	-1.4	-1	-3%	.
Cc1ccccc1-n1nc(-c2cccnc2)cc1C(=O)N/N=C/c1ccncc1	3	-5.0	-2	2%	.
Cc1ccc(Cn2c(CN3CCOCC3)nc3c2c(=O)[nH]c(=O)n3C)cc1	6	-5.0	10	0%	3
Cc1ccc(C(=O)NCC2CCCN2S(=O)(=O)c2cccs2)cc1C (stereo not drawn)	75	1.2	.	.	.
COc1cc(/C=N/NC(=O)C2=NNC(=O)C2C)ccc1O (stereo not drawn)	1	-7.2	.	0%	.
O=C(NCCCNC(=O)c1c(F)cccc1F)c1c(F)cccc1F	-2	1.2	.	.	.

The last 4 compounds of the section above are carried over, then new ones follow.
SMILES	Mtb bLac sens	RecA splice inh	Arbovirus anti	Mtb H37Rv	YopH PTP inh	others
Cc1ccc(Cn2c(CN3CCOCC3)nc3c2c(=O)[nH]c(=O)n3C)cc1	6	-5.0	10	0%	3
Cc1ccc(C(=O)NCC2CCCN2S(=O)(=O)c2cccs2)cc1C (stereo not drawn)	75	1.2	.	.	.
COc1cc(/C=N/NC(=O)C2=NNC(=O)C2C)ccc1O (stereo not drawn)	1	-7.2	.	0%	.
O=C(NCCCNC(=O)c1c(F)cccc1F)c1c(F)cccc1F	-2	1.2	.	.	.
O=C(Nc1cccc(F)c1)c1cc(S(=O)(=O)N2CCC(C(=O)O)CC2)ccc1F	-15	4.1	2	.	-30
O=C(Nc1ccccc1C(=O)NC(Cc1ccccc1)C(=O)NC1CCCCC1)c1ccccc1 (stereo not drawn)	0	-0.3	-2	5%	-13
Cc1ccc(OCc2cc(C(=O)NCCn3cccn3)no2)cc1C	-1	2.6	.	.	.
COC(=O)/C(=C/c1ccco1)NC(=O)c1ccccc1	4	-3.9	3	0%	-37
COc1cccc(NC(=O)Cc2nc(-c3ccccc3)sc2-c2ccc(C)cc2)c1	-1	.	4	18%	-28
COc1ccc(CNC(=O)C2CC(c3ccccc3[N+](=O)[O-])=NO2)cc1 (stereo not drawn)	-10	-2.6	-2	15%	-19
O=C(CSc1ccccc1)NN1C(=O)c2ccccc2C1=O	3	-1.2	-5	-6%	.
COc1ccc(-c2nc(CS(=O)CC(=O)NCC3CCCO3)c(C)o2)cc1 (stereo not drawn)	1	3.2	0	1%	-22	Arbovirus anti repeat=3
COc1ccc(NC(=O)C2CCCN(S(=O)(=O)c3ccc4[nH]c(=O)ccc4c3)C2)cc1OC (stereo not drawn)	2	1.8	.	.	.
COc1ccc(Br)cc1CNC(=O)C1CCCN(c2nc3ccccc3o2)C1 (stereo not drawn)	0	1.8	-8	-5%	-50
O=C(COC(=O)/C=C/c1nc2ccccc2s1)Nc1cccc2ccccc12	84	1.6	1	48%	-35
Cc1cccc(-n2c(SCC(=O)O)nc3sc4c(c3c2=O)CCCC4)c1	-3	-2.3	6	-4%	.
Cc1[nH]c2ccccc2c1CCN(Cc1cccs1)C(=S)NC(C)(C)C	-3	0.4	3	4%	.
Cn1c(=O)c2sccc2n2c(CCCC(=O)NCc3ccc4c(c3)OCO4)nnc12	.	.	19	-8%	-36
CCCCC(C(=O)NC(C)(C)C)N(Cc1ccco1)C(=O)c1snc(C(N)=O)c1N (stereo not drawn)	-10	1.6	-13	3%	0
CC(C)NC(=S)N(CCc1ccncc1)C(C)C	1	-0.8	8	-5%	.
CCOc1ccc2oc(C(=O)OCC(=O)NC(=O)NC3CCCC3)c(C)c2c1	-10	9.6	3	2%	-27
O=C(O)COc1ccccc1O	-18	.	-4	-1%	-4
COC(=O)c1ccc(COC(=O)c2[nH]c(C)c(C(C)=O)c2C)o1	-8	-2.9	4	0%	-14
CCCCC1C2=C(CC(C)(C)CC2=O)OC2=C1C(=O)CC(C)(C)C2	8	5.7	7	7%	-7

Filtered by structure: the compounds so far containing a Cl atom.
SMILES	Mtb bLac sens	RecA splice inh	Arbovirus anti	Mtb H37Rv	YopH PTP inh	others
CS(=O)(=O)N(CC(=O)NCc1ccccc1)c1ccc(Cl)cc1	-5	-0.1	.	.	.
O=C(Nc1nncs1)c1cc(-c2ccncc2)nc2ccc(Cl)cc12	-10	3.2	.	.	.
CN(CCC1CCOCC1)C(=O)CC1C(=O)NCCN1Cc1c(F)cccc1Cl (stereo not drawn)	?	0.8	.	.	.
CCOC(=O)c1nnc(-c2ccccc2)nc1Oc1ccccc1Cl	27	45*	19	0%	-19
O=C(Nc1cccc(Cl)c1)Nc1nc(-c2ccccc2)cs1	-2	-1.4	-1	-3%	.

A stretch from the list above:
SMILES	Mtb bLac sens	RecA splice inh	Arbovirus anti	Mtb H37Rv	YopH PTP inh	others
CCOc1ccc2oc(C(=O)OCC(=O)NC(=O)NC3CCCC3)c(C)c2c1	-10	9.6	3	2%	-27
O=C(O)COc1ccccc1O	-18	.	-4	-1%	-4
COC(=O)c1ccc(COC(=O)c2[nH]c(C)c(C(C)=O)c2C)o1	-8	-2.9	4	0%	-14

(list continues)
SMILES	Mtb bLac sens	RecA splice inh	Arbovirus anti	Mtb H37Rv	YopH PTP inh	others
CCOCC(=O)Nc1cc(C(=O)Nc2cc(C)cc(C)c2)ccc1Cl	-10	0.8	-3	-5%	.
C=CCNc1nc(Cl)nc(Nc2ccc([N+](=O)[O-])cc2)n1	6	0.5	0	-1%	.
Cc1ccccc1OCC(O)CNC1CCC(NCC(O)COc2ccccc2C)CC1 (stereo not drawn)	90	-1.4	.	.	.
CCOC(=O)c1c(NC(=O)c2c(Br)cnn2C)c(C#N)nn1-c1ccccc1	-10	.	-2	-1%	-14
CCCOc1cc(CC(=O)NCc2ccco2)ccc1OC	-5	0.7	6	-9%	-15
COc1cc2ccccc2cc1C(=O)NC(=S)Nc1ccc(C(=O)O)cc1	25	1.7	.	.	.
COc1ccccc1N(CCC#N)C(=O)CSc1nc(-c2ccccc2)cn1N	-8	0.8	0	-4%	-43
CC(=O)c1cccc(N/C=C\C(=O)c2ccc(C)cc2)c1	-4	-3.7	-3	2%	-26
O=C(Nc1ccc(Cl)cc1)Nc1ccccc1C(=O)NCc1ccco1	15	1.7	-9	6%	-23
Cc1ccc2nc(-c3cccc(N)c3)[nH]c2c1	0	0.5	-19	8%	9
FC(F)(F)c1ccc(NCc2ccccn2)nc1	-3	-1.2	.	.	.
Cc1cc(C=O)c(C)n1C(C)C	6	-1.2	7	-5%	.
c1ccc(-c2cnc(SCCN3CCOCC3)n2CC2CCCO2)cc1 (stereo not drawn)	1	.	3	4%	-21
N#C/C(=C\c1cn(-c2ccccc2)nc1-c1ccccc1)S(=O)(=O)c1ccccc1	9	-0.4	-6	.	-16
COc1cc(NS(=O)(=O)c2cccc3nsnc23)cc(OC)c1	1	-0.1	10	-5%	-31
O=C(NCc1ccccc1)c1cc(-c2ccncc2)nc2ccc(S(=O)(=O)N3CCOCC3)cc12	-4	3.5	3	-13%	2
O=S(=O)(c1ccc(F)cc1)N1CCN(c2ccc(F)cc2)CC1	1	-154	.	.	.
COc1ccc(C(=O)/C=C/Nc2c(C)n(C)n(-c3ccccc3)c2=O)cc1OC	-9	-3.2	-12	-2%	-44
CCOCC(O)CS(=O)(=O)c1ccccn1 (stereo not drawn)	-6	3.6	5	-7%	-48
O=C(c1ccco1)N1CCn2c1nc1ccccc12	-15	-0.8	-6	1%	2
O=C(O)/C(=C\c1cn(-c2ccccc2)nc1-c1ccc(Cl)cc1)NC(=O)c1ccccc1	-1	-2.4	.	-3%	.
COCCCNC(=S)N1CCN(S(C)(=O)=O)CC1	-7	1.2	-3	2%	-27
CCN(C(=O)Cn1cnc2cc([N+](=O)[O-])ccc2c1=O)C1CCS(=O)(=O)C1 (stereo not drawn)	-1	-5.3	-4	-4%	.
Cc1ccnc(NS(=O)(=O)c2ccc(NC(=O)c3cc(=O)c4ccccc4o3)cc2)n1	8	-1.8	.	.	.
Cc1cc(Cl)c(S(=O)(=O)N2CCN(c3cccc(C)c3C)CC2)cc1OCC(N)=O	0	.	10	-9%	10
Cc1ccc(S(=O)(=O)N(C)C)cc1NC(=O)COC(=O)c1c(C)noc1C	?	-1.3	1	-2%	-26

Assay outcomes: PubChem BioAssay, several laboratories

This is a subset; rates above refer to the full screens.
